PKD1 inh – blocks activity of human protein kinase D1. Q15139. PKD1 kinase fluorescence polarization assay. inhibition, %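 (about 10 µM by stock and volumes)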. 0.056% of 200,000 active. AID 797;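 active means inhibition of 50% or more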;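 further: controls were vehicle for no effect and a reference inhibitor for full effect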
RGS16-Gao HTS – regulators of human RGS16-Galphao interaction; O15492+P09471; bead-based flow cytometry RGS16-Galphao binding, fluorescence; actives lie on both sides; binding response (% of control), % at 10 µM; 0.38% of 220,000 active; AID 1441;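 active means below 25% or above 175%, edge rows of some plates excepted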;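 further: Galphao activated by GDP with aluminum fluoride before binding; 100% = wells without compound and 0% = beads without RGS; some results beyond the cut were filed as inactive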
Target sequence (O15492 whole entry, looked up): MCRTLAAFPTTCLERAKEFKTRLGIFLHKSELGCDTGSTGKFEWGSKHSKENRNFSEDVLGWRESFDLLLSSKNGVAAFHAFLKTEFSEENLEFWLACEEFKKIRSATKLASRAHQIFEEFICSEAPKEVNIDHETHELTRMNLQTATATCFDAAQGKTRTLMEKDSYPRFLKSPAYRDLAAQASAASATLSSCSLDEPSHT
Target sequence (P09471 whole entry, looked up): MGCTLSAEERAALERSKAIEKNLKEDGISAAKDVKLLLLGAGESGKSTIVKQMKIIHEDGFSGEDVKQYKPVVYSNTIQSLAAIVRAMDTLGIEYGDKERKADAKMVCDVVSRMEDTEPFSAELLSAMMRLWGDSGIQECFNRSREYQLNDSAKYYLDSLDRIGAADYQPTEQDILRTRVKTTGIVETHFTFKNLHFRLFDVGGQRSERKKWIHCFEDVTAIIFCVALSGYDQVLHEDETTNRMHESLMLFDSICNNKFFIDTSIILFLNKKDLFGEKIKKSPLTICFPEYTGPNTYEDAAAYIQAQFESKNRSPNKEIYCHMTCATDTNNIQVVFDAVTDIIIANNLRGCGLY
INS promoter inh – TRM-6 insulin promoter activity inhibition; TRM-6 cells (human fetal islet line), insulin promoter-eGFP reporter, imaging; reporter expression induced with tamoxifen; 0.9% of 130,000 active; inhibition, % at 2 µM;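 active means inhibition above the mean plus 3 SD, with well images judged a real hit on visual review, cut at about 60% in these data, passing the limit was not always enough; inconclusive means inhibition over the cutoff but images rejected on review; inactive means inhibition not above the cutoff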
HSV replic up – increases HSV replication in cells; 0.005% of 220,000 active; HSV replication augmentation in cells, fold increase; maximum fold increase;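 active means peak rise of 1.5-fold or more in the series; inconclusive means self-fluorescent or not available for retest; tested in PC3 cells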;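 further: first round at 10 µM; read as green reporter fluorescence; hits show the peak of a series up to 25 µM; 1 = signal of infected wells without compound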
GALR2 agonist – activates the human galanin receptor 2; O43603; GALR2-expressing cells, agonist activation read-out; activation, %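 (tested at 5 µM)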; 0.48% of 140,000 active; AID 803;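 active means above mean plus 3 SD of all compounds, about 5% in these data, not always enough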;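 further: 0% = vehicle buffer wells and 100% = reference agonist at full effect; tested in CHO reporter cells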
Target sequence (O43603 whole entry, looked up): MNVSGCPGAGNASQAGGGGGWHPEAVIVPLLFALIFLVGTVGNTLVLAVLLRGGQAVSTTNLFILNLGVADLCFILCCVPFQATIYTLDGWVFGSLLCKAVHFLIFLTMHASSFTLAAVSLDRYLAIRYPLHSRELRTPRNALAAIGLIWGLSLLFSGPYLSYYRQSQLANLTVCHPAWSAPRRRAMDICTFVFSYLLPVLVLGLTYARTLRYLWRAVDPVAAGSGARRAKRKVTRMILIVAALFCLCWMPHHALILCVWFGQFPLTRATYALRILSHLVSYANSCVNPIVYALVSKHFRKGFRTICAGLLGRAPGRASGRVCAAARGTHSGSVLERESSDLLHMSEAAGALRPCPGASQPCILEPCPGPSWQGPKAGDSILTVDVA
INS promoter inh cell count – also measured in INS promoter inh; calls as there; normalized cell count, %; measured here: cell count, toxicity; reference of the scale not given here;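 cells exposed to compound for 48 h; stained nuclei by imaging scaled within each plate; lower means fewer cells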
HSV replic up primary fold – also measured in HSV replic up; calls as there; fold increase; compound at 10 µM; measured here: primary screen fold increase 10 uM; tested in PC3 cells;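 GFP signal in the first replicate; 1 = infected wells without compound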
* marks the source's active call; other numbers are inactive results; i = inactive; ? = inconclusive; . = no result given.

SMILES	PKD1 inh	RGS16-Gao HTS	INS promoter inh	INS promoter inh cell count	HSV replic up	HSV replic up primary fold	GALR2 agonist
CN1CCN(C(=O)C(N)Cc2ccccc2)CC1 (stereo not given)	-6	109	-44	93	i	1.1	.
CCOC(=O)c1c(NC(=O)CSc2nnc(-c3ccccc3C)n2C)sc(C(C)=O)c1C	4	99	.	.	i	0.85	-0.2
Cc1ccc(/C=C2\SC(=S)N(CCCC(=O)NNC(=O)c3ccccc3O)C2=O)cc1	.	104	.	.	i	0.98	.
O=C(/C=C/Nc1ccc(F)c(F)c1)c1cccs1	-2	104	.	.	i	1	-0.3
O=C(NCc1cc(C(F)(F)F)cc(C(F)(F)F)c1)C1CC(c2cccc(F)c2)=NO1 (stereo not given)	.	99	.	.	i	0.98	.
Cc1cccc(NC(=O)COc2ccc3oc4c(c3c2)CCCC4)n1	3	119	-85	116	i	0.84	-1.4
CCc1ccc(C(=O)CSc2n[nH]c(C)n2)cc1	7	98	.	.	i	1	-1.1
COc1ccccc1Oc1nc2c(c(=O)n(Cc3ccccc3F)c(=O)n2C)n1C	-4	86	-24	119	i	1.1	-1.2
COc1cccc(/C(C)=N/NC(=O)c2ccc(N(C)C)cc2)c1	-9	79	.	.	.	.	-1.4
O=[N+]([O-])c1ccccc1-c1nc(-c2ccc(Br)o2)no1	-2	100	19	127	i	1	1.2
CCOC(=O)c1cc(C#N)c(N2CCN(c3ccccn3)CC2)nc1-c1ccccc1	-5	98	.	.	i	0.96	.
O=C(c1ccccc1)N(Cc1ccc2c(c1)OCO2)Cc1nc2ccccc2c(=O)[nH]1	-3	100	.	.	i	1	-0.3
CC(CCc1ccccc1)NC(=O)c1ccc(NC(=O)c2ccc(Cl)cc2Cl)cc1 (stereo not given)	-7	98	.	.	i	0.85	-0.2
CC(C)(C)c1csc(NC(=O)c2ccc3nccnc3c2)n1	-5	104	-24	342	i	0.86	-3.2
CCC(C)(C)n1nnnc1C(c1ccncc1)N1CCN(c2cccc(OC)c2)CC1 (stereo not given)	-1	98	5	206	i	1	0.3
COc1ccccc1N(CC(=O)NCC1CCCO1)C(=O)CNS(=O)(=O)c1ccc(C)cc1 (stereo not given)	-12	106	-43	140	i	0.95	-3.6
CCOc1ccc(C2N(c3ccc(F)cc3)C(=O)C3CCCN32)cc1OC (stereo not given)	-1	103	.	.	i	1	-1.4
COc1ccc(C(C)(C)C)cc1NC(=O)COC(=O)c1ncc(Cl)c(Cl)c1Cl	1	100	26	123	i	0.91	0.6
CCCCCCC(=O)NN1CCN(C)CC1	4	103	0	101	i	0.87	0.2
COc1ccc(C(=O)Nc2n[nH]c(-c3ccncc3)n2)cc1	6	102	.	.	i	1.1	-0.8

Record cards, from the list above. Order of values: PKD1 inh	RGS16-Gao HTS	INS promoter inh	INS promoter inh cell count	HSV replic up	HSV replic up primary fold	GALR2 agonist
CC(C)(C)c1csc(NC(=O)c2ccc3nccnc3c2)n1 as listed: -5	104	-24	342	i	0.86	-3.2
COc1cccc(/C(C)=N/NC(=O)c2ccc(N(C)C)cc2)c1 as listed: -9	79	.	.	.	.	-1.4

(further entries)
SMILES	PKD1 inh	RGS16-Gao HTS	INS promoter inh	INS promoter inh cell count	HSV replic up	HSV replic up primary fold	GALR2 agonist
Cc1ccc2nc(SCC(=O)NCc3cccs3)c(C#N)cc2c1	-8	98	.	.	i	0.78	-3.9
O=C(c1ccc(N2CCCCCC2)c([N+](=O)[O-])c1)N1CCc2ccccc21	-17	103	14	112	i	0.95	-0.9
CCN(CC)S(=O)(=O)c1ccc(-c2nnc(SCC(=O)Nc3ccc(OC)cc3)o2)cc1	5	109	69	81	i	0.81	-0.4
CCCC(=O)Nc1ccccc1NC(=O)c1ccc(OCC)cc1	-1	100	.	.	i	1	.
Cc1ccc(NC(=O)C2(c3ccc([N+](=O)[O-])cc3)CCCC2)cc1	6	100	3	122	i	1.2	-2.4
Cc1cc(NNC(=O)c2cccc(C(F)(F)F)c2)nc2c1c(C)nn2C	.	112	.	.	i	0.93	.
O=C(CSCCSCC(=O)c1ccco1)c1ccco1	-4	97	-15	99	i	1.1	-1.5
COc1ccccc1CN1C[C@@H]2C[C@@H](c3ccccc3C)N3CCC[C@@]23C1=O	5	100	.	.	i	1.3	.
CCOc1ccccc1NC(=O)c1c(NC(=O)CCC(=O)O)sc2c1CCCCC2	3	105	49	85	i	1.2	.
C=CCn1c(SCC(=O)NCc2ccccc2)nnc1-c1ccccc1O	-7	101	62	76	i	1	-1.3
Cc1ccc(C)c(NC(=S)NCCN2CCOCC2)c1	-4	.	-18	129	i	1	-0.7
CC(=O)NC1=NC(=O)/C(=C/c2cn(C(C)=O)nc2-c2ccccc2)S1	-5	106	.	.	i	1.1	.
O=c1cc(NCCO)c2ccccc2o1	2	102	7	123	i	0.98	-2.5
COc1cc([N+](=O)[O-])c(C(=O)N2CCOCC2)c([N+](=O)[O-])c1	-16	45	45	93	i	0.99	-0.8
O=c1c2ccccc2nc(-c2ccccc2)n1CCCN1CCOCC1	-7	99	.	.	i	0.67	-1.3
CCC(=O)N1CCN(c2ccc(NC(=O)c3ccc4c(c3)OCCO4)cc2)CC1	9	101	.	.	i	1.1	.
COC(=O)c1ccc(NC(=O)CS(=O)(=O)Cc2ccccc2)cc1	-6	103	23	105	i	1.1	-1.8
O=C(c1ccc2ccccc2c1)C1CCCN(C(=O)CCn2cnnn2)C1 (stereo not given)	1	110	.	.	i	0.84	.
Cc1ccc(Nc2nc(COC(=O)C3CC3)cs2)cc1	-2	103	.	.	i	0.92	.
COC(=O)CSc1nc(Cc2ccccc2)nc2ccccc12	-6	104	-13	124	i	0.98	.
CN1c2ccccc2N(C)C1c1ccc2c(c1)OCO2	-1	102	-193	73	i	0.94	-1.9
C=CCn1c(SCC(=O)NCC2CCCO2)nc2scc(-c3ccco3)c2c1=O (stereo not given)	1	96	8	111	i	1.2	-2.6
COc1ccccc1CNC(=O)COC(=O)Cc1c(F)cccc1Cl	0	98	.	.	i	0.99	.
Cc1nc(NC(=O)CSc2nnc(-c3ccc4c(c3)OCO4)o2)c(Cl)cc1Cl	-9	105	-50	105	i	0.84	-1.0
Oc1ccccc1C(=S)N1CCCCC1	-1	90	.	.	i	0.91	-2.5
O=C(CCCC(=O)OCC(F)(F)C(F)F)Nc1ccccc1F	-1	99	.	.	i	0.92	.
Cc1ccc(N2C(=O)CSC23C(=O)Nc2ccccc23)cc1 (stereo not given)	7	103	38	80	i	1	-1.6
CC(C(N)=O)N1C(=O)C2C3C=CC(C3)C2C1=O (stereo not given)	-12	71	-57	85	i	0.92	-1.1
CCCNC(=O)C(=O)NCCC1=CCCCC1	-5	117	-8	24	i	1.1	-0.7
c1cc(-c2sc(-c3ccncc3)c(-c3ccncc3)c2-c2ccncc2)ccn1	.	97	.	.	i	0.94	.
CCOC(=O)c1sc2nc(C)cc(C)c2c1NC(=O)c1ccco1	-2	102	.	.	i	0.87	-0.1
NC(=O)c1cccc(C(N)=O)n1	0	98	.	.	i	0.83	.
Cc1cnc(C(=O)Nc2nccs2)cn1	-15	97	65	53	i	0.91	-4.1
CC(C)(C)C1CCc2c(sc(NC(=O)CSc3ncn[nH]3)c2C#N)C1 (stereo not given)	6	97	-60	87	i	0.95	-2.0
C=CCN1CCN(C(c2ccc(OC)c(OC)c2)c2nnnn2C(C)(C)C)CC1 (stereo not given)	3	104	.	.	i	0.9	-0.3
Oc1c(C(c2ccccn2)N2CCOCC2)ccc2cccnc12 (stereo not given)	4	103	.	.	i	0.91	-1.2
O=C(C1=C(O)C(=O)N(CCOCCO)C1c1ccccn1)c1cccs1 (stereo not given)	.	102	.	.	i	0.99	.
COc1ccc(NC(=O)c2cccs2)cc1O	-6	104	.	.	i	1	-0.9
O=C(CCS(=O)(=O)c1ccc(Br)s1)NCc1ccccc1	-8	103	-62	84	i	0.98	-1.2
Cc1cc(C(F)F)n2nc(C(=O)Nc3sc4c(c3C(N)=O)CCC4)nc2n1	3	97	-15	84	i	0.98	0.9
NC(=O)c1ccc(OCC(F)(F)F)nc1	.	98	.	.	i	0.98	.
O=C(COc1ccc(Cl)cc1)Nc1ncc([N+](=O)[O-])s1	0	97	.	.	i	0.94	.
COc1cccc(C2CC(C(F)(F)F)n3ncc(C(=O)NCc4ccco4)c3N2)c1 (stereo not given)	-9	102	.	.	i	0.93	-1.5
CCOC(=O)N1CCN(Cc2nc3c(c(=O)n(C)c(=O)n3C)n2CCC(C)C)CC1	-11	110	.	.	i	0.7	-2.6
CC(=O)NC(Cc1ccc(F)c(F)c1)C(=O)NC1CCN(c2c(Cc3ccccc3)c(C)nc3ncnn23)CC1 (stereo not given)	-1	60	-12	88	i	1.1	.
CCCCC(=O)Nc1cc([N+](=O)[O-])ccc1F	2	111	.	.	i	1.1	.
COc1cccc(Cn2c(NCC(C)C)nc3c2c(=O)n(C)c(=O)n3C)c1	8	108	-147	61	i	0.83	-1.0
CCOC(=O)C1C(=O)C=C(/C=C/c2ccc(N(C)C)cc2)CC1c1ccccc1 (stereo not given)	-18	122	.	.	?	.	-0.7
CCOC(=O)C1CCN(C(=O)C(CC)c2ccccc2)CC1 (stereo not given)	-2	104	.	.	i	1	.
CC1CCCC(C)N1C(=O)CSc1nnc(CSc2ncccn2)n1C (stereo not given)	-10	112	11	138	i	0.85	-0.7
CCCCn1c(SCC(=O)Nc2cc(C)on2)nc2c1c(=O)n(C)c(=O)n2C	-17	90	-13	74	i	0.9	0.1
O=C(Nc1ccccc1N1CCN(C(=O)c2ccc(Cl)cc2)CC1)c1cc(Br)ccc1Cl	-5	102	-18	89	i	0.93	-1.6
CCOc1ccc(C(=O)NCc2ccncc2)cc1	-8	104	12	106	i	0.95	-3.8
CSc1nc(-c2ccc(Cl)cc2)c(C#N)c(=O)n1C	5	108	.	.	i	0.98	.
O=[N+]([O-])c1cc(Br)c(OCc2nnc(-c3ccccc3)o2)c(Br)c1	0	100	-42	96	i	0.94	.
COCCN=c1scc(-c2cc(OC)c(OC)c(OC)c2)n1/N=C/c1c(C)[nH]c2ccccc12	-2	113	-173	133	i	0.86	0.3
N#Cc1c(-c2ccc(Cl)cc2)c2c([nH]c1=S)CCCC2	-2	97	.	.	i	0.84	.
CCOC(=O)c1cc(NC(=O)CCC(=O)O)ccc1N1CCCCC1	.	98	.	.	i	0.94	.
CCOc1ccc(Cn2nnc(C(=O)NCCc3ccc(Cl)cc3)c2N)cc1	-6	64	.	.	i	1.2	1.4
Cc1ccc(NCC(=O)N/N=C/c2ccc(-c3cccc(C(F)(F)F)c3)o2)cc1	5	96	.	.	i	0.92	-0.1
(continued)
SMILES	PKD1 inh	RGS16-Gao HTS	INS promoter inh	INS promoter inh cell count	HSV replic up	HSV replic up primary fold	GALR2 agonist
O=C(COC(=O)c1cc2ccccc2oc1=O)Nc1ccc(F)cc1F	.	102	.	.	i	1.2	.
CCCC(=O)c1ccc(N2CCN(C(=O)OCC)CC2)c(F)c1	-2	132	60	100	i	0.93	30*
Cc1ccc(C(NC(=O)c2ccccc2)C(Cl)Cl)cc1 (stereo not given)	8	106	4	106	i	1.1	-2.2
CCN1CCN(Cc2nc3c(c(=O)[nH]c(=O)n3C)n2Cc2ccccc2Cl)CC1	-10	.	.	.	i	0.95	-1.0
CSC1=C(C#N)C(c2ccccc2Cl)C(C(=O)c2cccs2)C(O)(C(F)(F)F)N1 (stereo not given)	5	58	-66	87	i	1	-0.3
Cn1nc(C(F)(F)F)c(-c2ccccc2)c1NC(=O)c1cccnc1	.	99	.	.	i	1.1	.
Cn1c(=O)c2c(nc(CN3CCc4ccccc4C3)n2Cc2ccc(F)cc2)n(C)c1=O	-10	.	68	105	i	1.2	-2.6
O=c1c2nnn(-c3ccc(Cl)cc3)c2ncn1Cc1ccccn1	1	102	.	.	i	1.1	.

Retrieved one by one from above:
SMILES	PKD1 inh	RGS16-Gao HTS	INS promoter inh	INS promoter inh cell count	HSV replic up	HSV replic up primary fold	GALR2 agonist
CCN1CCN(Cc2nc3c(c(=O)[nH]c(=O)n3C)n2Cc2ccccc2Cl)CC1	-10	.	.	.	i	0.95	-1.0
O=c1c2nnn(-c3ccc(Cl)cc3)c2ncn1Cc1ccccn1	1	102	.	.	i	1.1	.
Cn1nc(C(F)(F)F)c(-c2ccccc2)c1NC(=O)c1cccnc1	.	99	.	.	i	1.1	.
CSC1=C(C#N)C(c2ccccc2Cl)C(C(=O)c2cccs2)C(O)(C(F)(F)F)N1 (stereo not given)	5	58	-66	87	i	1	-0.3
CCCC(=O)c1ccc(N2CCN(C(=O)OCC)CC2)c(F)c1	-2	132	60	100	i	0.93	30*
O=C(COC(=O)c1cc2ccccc2oc1=O)Nc1ccc(F)cc1F	.	102	.	.	i	1.2	.

Source: PubChem (several laboratories)
